Bioassay records as filed in PubChem.
Arbovirus anti = antivirals against arbovirus infection, primary screen, cell-based, full library, 10K replicate subset | arbovirus infection cell-based antiviral screen | inhibition, % at 10 µM | 200,000 compounds, 0.37% hits | AID 1251, 2008;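 active = inhibition from about 30%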;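 note: bluetongue infection of BSR cells; cell survival read as ATP light after 72 h; 0% = infected wells without compound and 100% = uninfected wells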
YopH inh = YopH tyrosine phosphatase inhibitors, primary screen, biochemical, fluorescence Ex485/Em525; YopH tyrosine phosphatase [Yersinia enterocolitica]; 140,000 compounds, 0.16% hits; inhibition, %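 (about 10 µM by stock and volumes)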;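 active = inhibition of 50% or more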;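 note: controls were vehicle for no effect and minimum signal wells for full effect; inactives centre near -20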
Mtb betalactam = beta-lactam sensitization of Mtb H37Rv, H37Rv. M. tuberculosis H37Rv growth with meropenem, percent inhibition; hits of this screen are not shown here. inhibition, % at 25 µM. 330,000 compounds, 0.27% hits;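 active = about 74% or more and at least 40 points above the plate without the antibiotic, then above 30% in a dose series; inconclusive = first-round hits that could not be retested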;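 note: growth measured after seven days incubation then overnight dye step; 0% = bacteria only wells and 100% = bacteria with antibiotic; twin plates without the antibiotic show which effects depend on it; some results filed as inactive read as strong as hits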
Mtb growth = M. tuberculosis H37Rv growth inhibitors, H37Rv strain (AID 1626). M. tuberculosis H37Rv growth inhibition; higher % means a stronger effect. inhibition, % at 10 µM; hits with a dose series show IC50 in µM. 220,000 compounds, 0.95% hits;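 active = confirmed in a dose series; inconclusive = inhibition above 80% but not taken into the dose series; inactive = below 80% or under 30% at every dose of the series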;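 note: bacteria incubated seven days before Alamar blue readout; 0% = bacteria only wells and 100% = bacteria with antibiotic wells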
RecA splice inh = Mtb RecA intein splicing inhibitors, primary screen, biochemical, fluorescence, HTS; Protein RecA (Mycobacterium tuberculosis (strain ATCC 25618 / H37Rv)), P9WHJ3; cell-free RecA intein splicing; inhibition, %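 (about 9 µM by stock and volumes)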; 290,000 compounds, 0.75% hits; AID 2221, 2009; in the data active = inhibition above about 30%; inconclusive = no clear call, values can overlap the other calls;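 note: 0% = vehicle wells and 100% = reference inhibitor control wells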
Target sequence (P9WHJ3 whole entry, looked up, canonical isoform): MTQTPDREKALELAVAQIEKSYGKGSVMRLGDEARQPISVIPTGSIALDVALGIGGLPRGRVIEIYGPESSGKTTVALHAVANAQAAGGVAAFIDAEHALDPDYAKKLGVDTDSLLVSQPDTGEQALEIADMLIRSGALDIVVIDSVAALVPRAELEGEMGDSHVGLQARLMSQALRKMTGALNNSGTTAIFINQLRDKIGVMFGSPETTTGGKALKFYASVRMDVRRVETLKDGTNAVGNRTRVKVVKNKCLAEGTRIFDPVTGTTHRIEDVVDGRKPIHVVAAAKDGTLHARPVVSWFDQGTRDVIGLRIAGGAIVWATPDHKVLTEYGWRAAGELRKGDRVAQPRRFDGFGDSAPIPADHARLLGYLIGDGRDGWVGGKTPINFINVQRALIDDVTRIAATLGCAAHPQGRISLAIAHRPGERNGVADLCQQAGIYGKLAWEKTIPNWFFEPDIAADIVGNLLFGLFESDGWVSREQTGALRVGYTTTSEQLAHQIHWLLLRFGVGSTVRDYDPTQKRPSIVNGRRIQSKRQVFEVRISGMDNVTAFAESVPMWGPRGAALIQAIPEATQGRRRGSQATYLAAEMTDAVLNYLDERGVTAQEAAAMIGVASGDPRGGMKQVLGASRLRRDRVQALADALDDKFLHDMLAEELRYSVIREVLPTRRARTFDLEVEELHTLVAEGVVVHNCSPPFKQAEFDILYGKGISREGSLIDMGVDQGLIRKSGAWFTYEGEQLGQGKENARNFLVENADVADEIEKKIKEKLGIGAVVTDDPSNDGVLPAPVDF
Arbovirus anti repeat = second read-out of Arbovirus anti, no call of its own (marks repeat the call); inhibition, %; measured here: 10K subset replicate screen; many hits read low in the repeat;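 first of two repeat runs on a subset; 0% = infected and 100% = uninfected wells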
An asterisk follows results filed as active; ? = inconclusive; · = not tested or not shown.

SMILES | Arbovirus anti | YopH inh | Mtb betalactam | Mtb growth | RecA splice inh | others
Cc1cccc(NC(=S)N/N=C/c2ccc([N+](=O)[O-])s2)c1 | -44 | 2 | 84 | ? | -14
CCOc1ccc(C(=O)COC(C)=O)cc1 | -9 | -29 | -1 | -3% | -0.1
O=C(Nc1nc2ccc(Cl)cc2s1)c1ccco1 | -5 | -11 | 4 | -4% | -0.1
COc1cccc(CCNC(=O)CCc2nnc(-c3cc(C)oc3C)o2)c1 | · | · | 3 | · | 4.0
Fc1ccc2nc(N3CCCC3)sc2c1 | 2 | · | 2 | 10% | 1.7
CCC(=O)Nc1cc2c(cc1C(C)=O)OCCO2 | 0 | 0 | 1 | 0% | 2.9
O=C(c1ccco1)N1CCN=C1SCc1cccnc1 | -3 | -30 | -11 | -8% | -1.5
CC(=O)C(Cl)C(=O)Nc1ccccc1 (stereo unspecified) | -2 | · | · | -3% | ·
CCOC(=O)c1c(C)[nH]c(C(=O)COC(=O)CNC(=O)c2ccc(Br)cc2)c1C | -5 | -26 | -5 | -6% | 0.4
O=C(NCC1CCCO1)c1ccc(CNS(=O)(=O)c2cccc(Cl)c2)cc1 (stereo unspecified) | 6 | · | -4 | 5% | -2.7
CCOc1c(OC)cccc1C(=O)NCC1(c2ccccc2)CCCC1 | · | · | -2 | · | -1.2
O=C(CN1CCOCC1)N/N=C/c1cc2ccccc2nc1Cl | 5 | -30 | -6 | -5% | -0.4
COC(=O)Cc1nnc(NC(=O)C(C)C)s1 | 8 | -13 | 0 | -2% | -2.8
COc1cc([N+](=O)[O-])ccc1NC(=O)Nn1cnnc1 | · | · | -8 | · | -0.8
COc1ccc(CCNC(=O)c2cc3c(F)cccc3s2)cc1OC | · | · | 99 | · | 4.7
CC(C)C[C@H](NS(=O)(=O)c1ccc(Br)cc1)C(=O)O | 0 | 4 | 14 | 0% | -1.2
Cc1ccccc1NC(=O)COc1ccc(Br)cc1CNCCCO | 3 | · | -11 | -5% | -1.3
CCN1CCN(Cc2ccc(NC(=O)c3ccc(C)c(NC(=O)c4nccnc4N)c3)cc2C(F)(F)F)CC1 | · | · | -2 | 5% | 2.2
Cc1cc(=S)c2ccccc2[nH]1 | · | · | -2 | -3% | 20
COc1ccc(CCNC(=O)Cn2cnc3c(cnn3C(C)(C)C)c2=O)cc1OC | 6 | -11 | -1 | -11% | 1.5
COc1ccc(CNC(=O)[C@H](C)N2C(=O)N3CCc4c([nH]c5ccccc45)[C@@]3(C)C2=O)cc1OC | · | · | -1 | · | -1.0
CSc1nnnn1-c1ccc(C(=O)OCC(=O)N2CCOCC2)cc1 | 4 | -37 | 8 | -7% | ·
COc1cc(NC(=O)c2ccccc2-n2cnnn2)cc(OC)c1 | · | · | -7 | · | -0.3
CCN(CC)/C(N)=N/c1nc(C)cc(C)n1 | 9 | · | -4 | -3% | 0.7
COc1ccc(CNc2ccccc2SC)cc1OC | -2 | -39 | -1 | -7% | 3.4
CCCOc1ccc(C2c3c(oc4cc(C)c(C)cc4c3=O)C(=O)N2CCCN(C)C)cc1 (stereo unspecified) | 2 | -21 | -1 | 1% | 1.1 | Arbovirus anti repeat=-2
Cc1ccc(NC(=O)CSc2ccc3nnc(-c4cccnc4)n3n2)cc1 | · | · | -3 | · | -2.7
CC(C)C[C@H](NC(=O)OC(C)(C)C)C(=O)N1CCC(C(=O)N[C@@H](Cc2c[nH]c3ccccc23)C(=O)O)CC1 | · | · | ? | · | -3.1
Cc1c(C)n(Cc2ccc(Cl)cc2)c2ccc(C(=O)NCCN3CCOCC3)cc12 | · | · | 3 | · | 9.6
Cc1cc(C)cc(C(=O)NCCN2CCOCC2)c1 | · | · | -3 | · | -1.1
Cc1cc(=O)oc2cc(OCC(=O)NCCN3CCOCC3)c(Cl)cc12 | · | · | 2 | · | -3.5
Cc1cccc(N2CCN(C3=NC(=O)C(=C4CCCCC4)S3)CC2)c1 | 11 | -11 | 3 | ? | 13
CCOc1ccc(S(=O)(=O)Nc2nc3ccccc3nc2Nc2ccc(N3CCOCC3)cc2)cc1 | -4 | 1 | 3 | 5% | -120
Cc1ccc2nc(Cl)c(/C=N/Nc3nc(C)cc(C)n3)c(=O)n2c1 | 3 | -23 | 1 | 0% | -105
CCc1n[nH]c(=S)n1/N=C/c1c(O)ccc2ccccc12 | · | · | 1 | · | 0.1
Cc1ccc(CN(CCO)CCO)cc1 | 3 | · | 2 | -6% | -1.7
Oc1ccccc1Oc1c(F)c(F)nc(N2CCCC2)c1F | -1 | -29 | 5 | 8% | 5.4
COc1ccc(S(=O)(=O)NCC(=O)NCc2cc(=O)n(C)c(=O)n2C)cc1C | · | · | 5 | · | -1.1
COc1cc(/C=N/Nc2snc(SC)c2C#N)cc(OC)c1OC | -13 | 2 | 2 | -2% | -1.0
CCCCCn1c(SCC(=O)OCC)nc2cc(C(=O)NCc3ccco3)ccc2c1=O | -4 | -49 | 21 | · | 2.2
CC(C)NC(=O)CSc1nc(N)c(NC(=O)c2ccco2)c(=O)[nH]1 | 1 | · | 1 | 2% | -5.5
CC1(C)CC(N2CCN(C(c3ccccc3)c3ccccc3)CC2)=CC(=[N+]2CCCCC2)C1 | · | · | 96 | 26% | 7.0
COc1ccc(NC(=O)Nc2cccc(OC)c2)cc1 | 3 | -28 | -2 | -10% | 0.3 | Arbovirus anti repeat=4
COc1ccccc1NC(=O)Cn1c2ccc(F)cc2c2nc3n(c(=O)c21)CCS3 | · | · | 1 | · | 0.4
COCCN(C(=S)Nc1cc(C)ccc1C)C(C)c1cccnc1 (stereo unspecified) | 8 | -17 | 2 | -3% | 1.4

An excerpt from the list above:
SMILES | Arbovirus anti | YopH inh | Mtb betalactam | Mtb growth | RecA splice inh | others
Cc1cccc(N2CCN(C3=NC(=O)C(=C4CCCCC4)S3)CC2)c1 | 11 | -11 | 3 | ? | 13
CCOc1ccc(S(=O)(=O)Nc2nc3ccccc3nc2Nc2ccc(N3CCOCC3)cc2)cc1 | -4 | 1 | 3 | 5% | -120
Cc1ccc2nc(Cl)c(/C=N/Nc3nc(C)cc(C)n3)c(=O)n2c1 | 3 | -23 | 1 | 0% | -105
CCc1n[nH]c(=S)n1/N=C/c1c(O)ccc2ccccc12 | · | · | 1 | · | 0.1

The listing continues:
SMILES | Arbovirus anti | YopH inh | Mtb betalactam | Mtb growth | RecA splice inh | others
C/C(=N\NC(=O)CCc1ccc(S(=O)(=O)N2CCOCC2)cc1)c1ccc(OC(F)F)cc1 | 3 | · | 2 | 4% | 0.1
COc1ccccc1CCNC(=O)C1CCN(C(=O)/C=C/c2ccccc2)CC1 | · | · | 0 | · | 0.4
Cc1ccc2nc(NC(=O)/C=C/c3ccc4c(c3)OCO4)sc2c1 | -28 | -1 | 8 | -4% | -3.8
Cc1c(Cl)cnc(NC(=O)COC(=O)CCS(=O)(=O)c2ccccc2)c1Cl | 11 | -39 | -10 | -20% | 2.6
Cc1noc(C)c1C(=O)Nc1sc2c(c1C(N)=O)CCCCC2 | 5 | -23 | 1 | 2% | -4.0
CCOc1ccc(CNC(=O)Cn2nc(C)c3c(C)n(-c4ccc(C)cc4)nc3c2=O)cc1 | · | · | 6 | · | -1.3
O=C(NCc1ccccn1)Nc1ccc(F)cc1 | 1 | -15 | -5 | -13% | -0.4
COc1ccc(S(=O)(=O)NNC(=O)Nc2ccc(C)cc2C)c(OC)c1 | · | · | 6 | · | 2.4
Cc1ccsc1C(=O)N(CC(C)C)c1c(N)n(Cc2ccccc2)c(=O)[nH]c1=O | · | · | -12 | · | -0.8
CCOC(=O)Cn1nc(-c2ccccc2)nc1-c1ccccc1 | 5 | -9 | 99 | 19% | 0.8
O=C(c1cccs1)N1CCOCC1 | 1 | -59 | -9 | -4% | -1.2
COc1cc2c(cc1OC)CN(C(=S)Nc1ccc(OC(F)F)cc1)CC2 | 26 | · | 8 | -9% | -5.3
COc1ccc(N2CCN(C(=O)c3ccc(C)c(NC(=O)C4=C(C)OCCS4)c3)CC2)cc1 | · | · | 3 | · | -4.4
Cc1c(NC(=O)COC(=O)COc2ccc(Nc3ccccc3)cc2)c(=O)n(-c2ccccc2)n1C | 2 | · | 89 | -6% | 7.7
Cc1ccc(NC(=S)NNC(=O)C2CC2c2ccc(C)cc2)cc1 (stereo unspecified) | -21 | -15 | 3 | 0% | 3.3
Cc1nn(-c2ccccc2)c2nc(-c3ccco3)cc(C(=O)O)c12 | 17 | -4 | -2 | -3% | 4.9
CCCCNC(=O)c1ccc(NS(=O)(=O)c2ccccc2)cc1 | -7 | 10 | 1 | -3% | 1.7
CN(C)c1ccc(-c2nc3ccccc3n2C)cc1 | -6 | -39 | -5 | -3% | -1.6
CC(C)Oc1ccc(NC(=O)c2ccncc2)cc1 | 0 | 29 | -11 | -12% | -1.1
COC(=O)c1ccc(C(=O)NC2CCCc3c2cnn3-c2ccccc2F)nc1 (stereo unspecified) | · | · | 89 | · | 1.8
COc1ccccc1OCC(=O)Nc1cc(C)ccc1NC(=O)c1ccco1 | · | · | -1 | · | 2.5
CCc1cccc2c(C(=O)COC(=O)c3ccc(O)cc3)c[nH]c12 | 7 | -30 | -2 | 3% | 0.6
CCc1ccc(C(=O)N/N=C(\C)c2ccncc2)s1 | · | · | 8 | · | -1.5
Nc1nnc(CCS(=O)(=O)c2ccc(Cl)cc2)s1 | 15 | -16 | 2 | -12% | 0.2
COc1cc(CN2CCCC(CO)(Cc3ccccc3F)C2)ccc1O (stereo unspecified) | · | · | 3 | · | -1.5
Cc1ccc(NC(=O)CSc2nccn2Cc2ccccc2)cc1C | -5 | -16 | 0 | 42% | 8.1
O=C(CNC(=O)c1ccccc1F)NCCOc1cccc(Cl)c1Cl | 2 | 2 | 1 | -4% | 0.1
Cc1ccc(-n2cccc2/C=N/n2cnnc2)cc1Cl | 7 | -41 | 0 | -4% | 0.0
Cc1ccc(S(=O)(=O)/N=c2\sccn2C)cc1 | 0 | 20 | 0 | -4% | 1.0
Clc1cccc(C2CCN(Cc3nc(CC4CC4)no3)C2)c1 (stereo unspecified) | -5 | · | 2 | -6% | 1.1
COC(=O)C1CCN(C(=O)COC(=O)C2CCN(S(=O)(=O)c3ccc4c(c3)OCCO4)CC2)CC1 | · | · | -1 | · | 0.7
CC(NC(=O)C(=O)N/N=C\c1ccc([N+](=O)[O-])cc1)c1ccccc1 (stereo unspecified) | -2 | · | 4 | -6% | -0.8
Cc1nn(Cc2noc(C(=O)NCc3ccc(F)cc3)n2)c(C)c1Br | 0 | · | 4 | 1% | 0.8
COc1ccc(Cc2nnc(N=Nc3c(O)[nH]c4ccc(Br)cc34)[nH]c2=O)cc1 | 24 | · | 67 | -7% | 5.7
Cc1ccc(S(=O)(=O)N2CCN(C(=O)COC(=O)c3ccc(O)cc3)CC2)c(C)c1 | · | · | -2 | · | 3.6
CC(C)N=C(NC#N)SCc1ccc(F)cc1 | 3 | -4 | 4 | -1% | 0.8
CCCOC1CCCN(C(=O)c2cc(Cl)c(Cl)cc2C(=O)O)C1 (stereo unspecified) | -1 | -17 | -2 | -5% | -2.6
Cc1ccc(C(=O)NCC(=O)Nc2ccc(F)c(F)c2F)cc1 | · | · | 5 | · | -0.6
COc1ccccc1OCCNC(=O)c1ccc(C)o1 | · | · | 0 | · | -0.7
CCOc1ccc(N=c2scc(-c3ccccc3)n2CCO)cc1 | -4 | -5 | 99 | 35µM* | 2.3
CN(c1ccccc1)S(=O)(=O)c1cccc(NC(=O)Cn2cnc3c2c(=O)n(C)c(=O)n3C)c1 | 6 | -15 | -1 | 3% | 3.1
CCOc1ccc(N2CC(C(=O)Nc3ccccc3OC)CC2=O)cc1 (stereo unspecified) | 0 | 22 | 2 | 1% | 1.0 | Arbovirus anti repeat=-2
COC(=O)c1ccccc1NC(=O)CN1C(=O)c2ccccc2S1(=O)=O | 4 | 6 | -7 | -12% | -0.6
Cc1nnc(N2CCC(C(=O)N3CCCCC3)CC2)c2nn(-c3ccc(Cl)cc3)c(C)c12 | · | · | 2 | · | -1.0
CC(C)CC(C(=O)Nc1cccc(O)c1)N1C(=O)c2ccccc2C1=O (stereo unspecified) | · | · | -7 | · | 2.5
Cc1ccc(S(=O)(=O)N2CCOCC2)cc1C(=O)Nc1nc(-c2cccnc2)cs1 | -1 | 11 | 9 | -3% | -1.2 | Arbovirus anti repeat=7
CC(C)(C)c1ccccc1OCCCCCNCCO | -9 | -32 | 37 | 11% | 0.3
CCCOc1ccc(CC(=O)NCC2(c3ccccc3)CCOCC2)cc1OC | 1 | -6 | 0 | -13% | -2.8

This is a subset, so the mix of outcomes need not match the whole.
